UUG fidelity: modulators of start codon recognition fidelity in yeast | S. cerevisiae UUG-firefly luciferase reporter, luminescence/redox ratio | 0.13% of 350,000 active | activity score, % at 18.7 µM | AID 602363;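 active = replicate mean at a twofold rise or more, about +100% in these data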;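 note: firefly luciferase made from a UUG start codon reports start codon fidelity; reporter light over untreated wells divided by growth signal over untreated wells; some hits fall short of that in this replicate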
Env fusion inh: inhibitors of HIV Env-mediated cell fusion; HeLa-JRFL Env/CEM21 cell fusion, luciferase; inhibition, % at 12.3 µM; 1.1% of 360,000 active;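 active = mean replicate inhibition score of at least 50 and every replicate individually at or above 50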;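 note: 0% = plate neutral controls and 100% = maraviroc near 300 nM; one replicate is shown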
* hit, by the source's call; [ ] = remark or other dose.

A first look:
cpd	Compound	UUG fidelity	Env fusion inh
1	C[C@H](CO)N1C[C@H](C)[C@@H](CN(C)C(=O)c2cccc(F)c2)Oc2ncc(-c3ccccc3)cc2C1=O	-1	6[16.7 µM]
2	C[C@H](CO)N1C[C@H](C)[C@@H](CN(C)C(=O)Nc2ccccc2F)Oc2cc(-c3ccc(F)cc3)ccc2S1(=O)=O	-6	3[16.7 µM]

This part in full, repeating the preview:
cpd	Compound	UUG fidelity	Env fusion inh
1	C[C@H](CO)N1C[C@H](C)[C@@H](CN(C)C(=O)c2cccc(F)c2)Oc2ncc(-c3ccccc3)cc2C1=O	-1	6[16.7 µM]
2	C[C@H](CO)N1C[C@H](C)[C@@H](CN(C)C(=O)Nc2ccccc2F)Oc2cc(-c3ccc(F)cc3)ccc2S1(=O)=O	-6	3[16.7 µM]
3	Cc1noc(C)c1S(=O)(=O)Nc1ccc2c(c1)C(=O)N([C@@H](C)CO)C[C@@H](C)[C@@H](CN(C)S(C)(=O)=O)O2	-7	-6[16.7 µM]
4	CCCNC(=O)N(C)C[C@@H]1Oc2cc(C#CC3CC3)ccc2S(=O)(=O)N([C@@H](C)CO)C[C@@H]1C	7	-7[16.7 µM]
5	C[C@H](CO)N1C[C@H](C)[C@H](CN(C)C(=O)Nc2ccccc2)Oc2c(NC(=O)Nc3ccc(F)cc3)cccc2C1=O	12	8[16.7 µM]
6	Cc1noc(C)c1S(=O)(=O)Nc1ccc2c(c1)C(=O)N([C@H](C)CO)C[C@H](C)[C@H](CN(C)C(=O)Nc1ccc3c(c1)OCO3)OCCCC[C@@H](C)O2	3	0[16.7 µM]
7	Cc1ccccc1-c1ccc2c(c1)O[C@H](CN(C)C)[C@@H](C)CN([C@@H](C)CO)S2(=O)=O	-9	-16[16.7 µM]
8	CCCC(=O)Nc1ccc2c(c1)C(=O)N(C)C[C@H](OC)[C@H](C)CN(CCC)[C@H](C)CO2	-2	-14[16.7 µM]
9	O=C(NCC[C@H]1CC[C@H](NC(=O)c2cccnc2)[C@@H](CO)O1)Nc1ccc(Cl)cc1	-10	-2[16.7 µM]
10	O=C(NCC[C@@H]1CC[C@@H](NC(=O)c2cnccn2)[C@H](CO)O1)Nc1ccc(F)cc1	-3	1[16.7 µM]
11	C[C@@H]1CN([C@@H](C)CO)C(=O)c2cc(-c3ccccc3F)cnc2O[C@@H]1CN(C)C(=O)c1ccccn1	5	-17[16.7 µM]
12	C[C@H](CO)N1C[C@H](C)[C@H](CN(C)C(=O)Nc2ccccc2)Oc2ncc(C#Cc3ccc(C(F)(F)F)cc3)cc2C1=O	-8	6[16.7 µM]
13	C[C@@H]1CN([C@@H](C)CO)C(=O)c2cc(C3=CCCCC3)cnc2O[C@H]1CN(C)C(=O)NC1CCCC1	15	-10[16.7 µM]
14	C[C@H](CO)N1C[C@H](C)[C@@H](CN(C)CC2CCCCC2)Oc2ccc(NC(=O)Nc3cccc4ccccc34)cc2CC1=O	11	25[16.7 µM]
15	NC(=O)NCC#Cc1ccc2c(c1)[C@]1(C(=O)N2)[C@H](C(=O)O)[C@H]2C(=O)O[C@H](c3ccccc3)[C@H](c3ccccc3)N2[C@@H]1c1ccc(OCCO)cc1	5	-25[16.7 µM]
16	C[C@@H]1CCCCO[C@H](CN(C)C(=O)Nc2ccc3c(c2)OCO3)[C@H](C)CN([C@@H](C)CO)C(=O)c2cc(NS(=O)(=O)c3cn(C)cn3)ccc2O1	-5	1[16.7 µM]
17	COc1ccc(S(=O)(=O)Nc2ccc3c(c2)C(=O)N([C@@H](C)CO)C[C@@H](C)[C@@H](CN(C)S(=O)(=O)c2c(C)noc2C)OCCCC[C@@H](C)O3)cc1	-12	-15[16.7 µM]
18	Cn1cnc(S(=O)(=O)N[C@@H]2C=C[C@@H](CC(=O)NCC3CC3)O[C@@H]2CO)c1	-10	-9[16.7 µM]
19	C[C@@H]1CN([C@@H](C)CO)C(=O)c2cc(NC(=O)Nc3ccc(C(F)(F)F)cc3)ccc2O[C@@H](C)CCCCO[C@H]1CN(C)Cc1ccc2c(c1)OCO2	4	10[16.7 µM]
20	O=C(CCN1CCCCC1)NCC[C@H]1CC[C@@H](NS(=O)(=O)c2cccc(F)c2)[C@@H](CO)O1	-5	16[16.7 µM]

Reformatted with the structure last: five of the compounds above
item | UUG fidelity | Env fusion inh | molecule
16 | -5 | 1[16.7 µM] | C[C@@H]1CCCCO[C@H](CN(C)C(=O)Nc2ccc3c(c2)OCO3)[C@H](C)CN([C@@H](C)CO)C(=O)c2cc(NS(=O)(=O)c3cn(C)cn3)ccc2O1
17 | -12 | -15[16.7 µM] | COc1ccc(S(=O)(=O)Nc2ccc3c(c2)C(=O)N([C@@H](C)CO)C[C@@H](C)[C@@H](CN(C)S(=O)(=O)c2c(C)noc2C)OCCCC[C@@H](C)O3)cc1
3 | -7 | -6[16.7 µM] | Cc1noc(C)c1S(=O)(=O)Nc1ccc2c(c1)C(=O)N([C@@H](C)CO)C[C@@H](C)[C@@H](CN(C)S(C)(=O)=O)O2
13 | 15 | -10[16.7 µM] | C[C@@H]1CN([C@@H](C)CO)C(=O)c2cc(C3=CCCCC3)cnc2O[C@H]1CN(C)C(=O)NC1CCCC1
14 | 11 | 25[16.7 µM] | C[C@H](CO)N1C[C@H](C)[C@@H](CN(C)CC2CCCCC2)Oc2ccc(NC(=O)Nc3cccc4ccccc34)cc2CC1=O

Other records
cpd	Compound	UUG fidelity	Env fusion inh
21	C[C@H]1CN([C@@H](C)CO)C(=O)c2cccc(NC(=O)c3ccncc3)c2O[C@@H]1CN(C)C(=O)Nc1ccc(C(F)(F)F)cc1	1	12[16.7 µM]
22	COCC#Cc1ccc2c(c1)O[C@@H](CN(C)C(=O)C1CCCCC1)[C@H](C)CN([C@H](C)CO)S2(=O)=O	-14	-3[16.7 µM]
23	COc1ccc(CN(C)C[C@@H]2OCCCC[C@H](C)Oc3ccc(NC(=O)NC4CCCCC4)cc3C(=O)N([C@H](C)CO)C[C@@H]2C)cc1	8	-26[16.7 µM]
24	CC(C)CC#Cc1ccc2c(c1)O[C@@H](CN(C)C)[C@H](C)CN([C@@H](C)CO)S2(=O)=O	1	32[16.7 µM]
25	COc1ccc(NC(=O)N(C)C[C@@H]2Oc3ccc(NC(=O)C4CC4)cc3C(=O)N([C@@H](C)CO)C[C@H]2C)cc1	-6	13[16.7 µM]
26	CN1C(=O)c2cc(NC(=O)Nc3ccccc3)ccc2OC[C@H]2O[C@H](CC(=O)NC3CCC3)CC[C@@H]21	16	19[16.7 µM]
27	C[C@H]1CN([C@@H](C)CO)C(=O)Cc2cc(NS(=O)(=O)c3ccccc3)ccc2O[C@@H]1CN(C)CC1CCCCC1	5	15[16.7 µM]
28	C[C@@H]1CCCCO[C@H](CN(C)CC2CC2)[C@@H](C)CN([C@@H](C)CO)C(=O)c2cc(NS(=O)(=O)c3cccs3)ccc2O1	3	25[16.7 µM]
29	C[C@@H]1CN([C@@H](C)CO)C(=O)c2cc(NS(C)(=O)=O)ccc2O[C@H]1CN(C)Cc1ccncc1	-1	-14[16.7 µM]
30	COc1ccc(CN(C)C[C@@H]2Oc3ccc(NC(=O)Cc4cn(C)c5ccccc45)cc3C(=O)N([C@H](C)CO)C[C@@H]2C)cc1	-14	-11[16.7 µM]
31	C[C@H](CO)N1C[C@H](C)[C@H](CN(C)C)Oc2ccc(N(C)C)cc2CC1=O	-4	-3[16.7 µM]
32	CO[C@@H]1CN(C)C(=O)c2cc(NC(=O)Nc3cc(F)ccc3F)ccc2OC[C@H](C)N(C(=O)c2ccccn2)C[C@H]1C	5	-4[16.7 µM]
33	O=C1N(CCS(=O)(=O)c2ccccc2)Cc2ccccc2C[C@]12N=C(c1ccc(OCCCO)cc1)O[C@@H]2c1ccccc1	-11	31[16.7 µM]
34	C[C@H](CO)N1C[C@H](C)[C@@H](CN(C)CC2CC2)Oc2c(NC(=O)c3ccncc3)cccc2C1=O	3	-14[16.7 µM]
35	COCc1cn(CC[C@@H]2CC[C@@H](NC(=O)c3ccccc3)[C@H](CO)O2)nn1	-10	3[16.7 µM]
36	CC(C)NC(=O)N(C)C[C@H]1Oc2c(NC(=O)c3nc4ccccc4s3)cccc2C(=O)N([C@H](C)CO)C[C@@H]1C	8	-3[16.7 µM]
37	CO[C@H]1CN(C)C(=O)c2cc(NC(=O)C3CC3)ccc2OC[C@@H](C)N(C(=O)Cc2ccccn2)C[C@@H]1C	-2	4[16.7 µM]
38	C[C@@H]1CN([C@H](C)CO)C(=O)c2cc(N(C)C)ccc2O[C@@H](C)CCCCO[C@@H]1CN(C)C(=O)Nc1ccc(C(F)(F)F)cc1	-6	27[16.7 µM]
39	C[C@@H]1CCCCO[C@H](CN(C)C(=O)Nc2cccc3ccccc23)[C@H](C)CN([C@@H](C)CO)C(=O)c2cc(NC(=O)Nc3cccc4ccccc34)ccc2O1	-12	-35[16.7 µM]
40	CC(C)NC(=O)Nc1cccc2c1O[C@@H](CN(C)C(=O)NC1CCCCC1)[C@@H](C)CN([C@@H](C)CO)C2=O	4	-15[16.7 µM]
41	C/C=C/c1ccc2c(c1)O[C@H](CN(C)C(=O)NC1CCCCC1)[C@@H](C)CN([C@@H](C)CO)S2(=O)=O	0	2[16.7 µM]
42	CNC[C@H]1OCCCC[C@@H](C)Oc2ccc(NC(=O)Nc3cccc4ccccc34)cc2C(=O)N([C@H](C)CO)C[C@H]1C	4	7[16.7 µM]
43	C[C@@H]1CCCCO[C@@H](CN(C)C)[C@H](C)CN([C@H](C)CO)C(=O)c2cc(NS(=O)(=O)c3ccc(F)cc3)ccc2O1	7	-5[16.7 µM]
44	CC(=O)Nc1ccc2c(c1)C(=O)N(C)[C@@H]1CC[C@H](CC(=O)NCCCN3CCOCC3)O[C@H]1CO2	-8	18[16.7 µM]
45	C[C@H](O)C#Cc1ccc2c(c1)O[C@@H](CN(C)CC1CC1)[C@H](C)CN([C@H](C)CO)S2(=O)=O	-17	0[16.7 µM]
46	COc1ccc(S(=O)(=O)Nc2ccc3c(c2)C(=O)N([C@H](C)CO)C[C@@H](C)[C@H](CN(C)C(=O)Nc2ccc(C(F)(F)F)cc2)O3)cc1	2	18[16.7 µM]
47	CCCNC(=O)N(C)C[C@H]1Oc2ncc(C#C[C@@H](C)O)cc2C(=O)N([C@@H](C)CO)C[C@H]1C	2	-4[16.7 µM]
48	C[C@@H]1CN([C@@H](C)CO)C(=O)c2cc(-c3cccnc3)cnc2O[C@@H]1CN(C)C(=O)Nc1ccc(F)cc1	-6	12[16.7 µM]
49	C[C@@H]1CCCCO[C@@H](CN(C)C(=O)Nc2ccc3c(c2)OCO3)[C@@H](C)CN([C@@H](C)CO)C(=O)c2cc(NC(=O)Nc3ccccc3)ccc2O1	5	-33[16.7 µM]
50	C[C@@H]1CN([C@@H](C)CO)C(=O)c2cc(NS(=O)(=O)c3ccccc3)ccc2O[C@@H](C)CCCCO[C@@H]1CN(C)C(=O)Nc1ccc(C(F)(F)F)cc1	9	-3[16.7 µM]
51	C[C@H]1CN([C@@H](C)CO)C(=O)c2cccc(N(C)C)c2O[C@@H]1CN(C)Cc1ccc(Cl)c(Cl)c1	-10	17[16.7 µM]
52	Cc1noc(C)c1NC(=O)N[C@H]1C=C[C@H](CC(=O)Nc2ccccc2)O[C@@H]1CO	-7	-10[16.7 µM]
53	C[C@@H]1CN([C@H](C)CO)C(=O)c2cccc(NC(=O)c3ccncc3)c2O[C@H]1CN(C)Cc1ccc(C(=O)Nc2ccccc2N)cc1	0	-3[16.7 µM]
54	C[C@H](CO)N1C[C@H](C)[C@@H](CN(C)Cc2ccc(C(=O)Nc3ccccc3N)cc2)Oc2c(NC(=O)Nc3ccccc3)cccc2C1=O	5	-43[16.7 µM]
55	O=C(C[C@H]1C[C@H]2c3cc(NC(=O)C4CCOCC4)ccc3O[C@H]2[C@@H](CO)O1)NCc1cccc(F)c1	20	6[16.7 µM]
56	C[C@H](CO)N1C[C@H](C)[C@H](CN(C)Cc2ccccc2)Oc2c(NC(=O)Nc3ccccc3)cccc2C1=O	8	-14[16.7 µM]
57	C[C@H]1CN([C@@H](C)CO)C(=O)c2cc(NS(=O)(=O)c3ccccc3)ccc2O[C@H]1CN(C)Cc1ccc(C(=O)Nc2ccccc2N)cc1	-3	-3[16.7 µM]
58	C[C@@H]1CN([C@H](C)CO)C(=O)c2cc(/C=C/c3ccccc3)cnc2O[C@H]1CN(C)Cc1cccc(C(=O)O)c1	10	-21[16.7 µM]
59	CCCNC(=O)N[C@H]1CC[C@@H](CCn2cc(C3CC3)nn2)O[C@H]1CO	15	13[16.7 µM]
60	CN(C)C(=O)[C@@]1(Cc2ccccc2N=[N+]=[N-])N=C(c2ccc(OCCCO)cc2)O[C@H]1c1ccccc1N=[N+]=[N-]	1	8[16.7 µM]
61	COCC(=O)Nc1ccc2c(c1)[C@H]1C[C@H](CC(=O)NCc3cccc(F)c3)O[C@H](CO)[C@H]1O2	-7	7[16.7 µM]
62	O=C(N[C@@H]1CC[C@H](CCn2cc(-c3cccnc3)nn2)O[C@H]1CO)c1ccccc1F	-6	-5[16.7 µM]
63	O=C(Nc1ccc(F)cc1)N[C@@H]1C=C[C@@H](CC(=O)N2CCCCC2)O[C@H]1CO	-6	0[16.7 µM]
64	C[C@H]1CN([C@@H](C)CO)C(=O)c2cc(NS(=O)(=O)c3ccc(Cl)cc3)ccc2O[C@@H]1CN(C)Cc1ccc(Cl)c(Cl)c1	17	13[16.7 µM]
65	O=C(NCC[C@H]1CC[C@H](NS(=O)(=O)c2ccccc2)[C@H](CO)O1)c1ccc2c(c1)OCO2	28	0[16.7 µM]
66	COc1ccc(S(=O)(=O)N(C)C[C@H]2Oc3ccc(NS(=O)(=O)c4c(C)noc4C)cc3C(=O)N([C@@H](C)CO)C[C@@H]2C)cc1	16	0[16.7 µM]

Compound activity (PubChem BioAssay)

This is a subset, so the mix of outcomes need not match the whole.
